OX1R antag-1: blocks the human orexin 1 receptor; O43613; OX1R-expressing cells, FRET antagonist read-out; inhibition, % at 6.6 µM; 1.8% of 330,000 active; AID 485270; in the data active = inhibition mostly above about 38%, no sharp cut-off; inactive = mostly below about 40%;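 also: 0% = agonist challenge alone and 100% = reference antagonist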
Target sequence (O43613 whole entry, looked up): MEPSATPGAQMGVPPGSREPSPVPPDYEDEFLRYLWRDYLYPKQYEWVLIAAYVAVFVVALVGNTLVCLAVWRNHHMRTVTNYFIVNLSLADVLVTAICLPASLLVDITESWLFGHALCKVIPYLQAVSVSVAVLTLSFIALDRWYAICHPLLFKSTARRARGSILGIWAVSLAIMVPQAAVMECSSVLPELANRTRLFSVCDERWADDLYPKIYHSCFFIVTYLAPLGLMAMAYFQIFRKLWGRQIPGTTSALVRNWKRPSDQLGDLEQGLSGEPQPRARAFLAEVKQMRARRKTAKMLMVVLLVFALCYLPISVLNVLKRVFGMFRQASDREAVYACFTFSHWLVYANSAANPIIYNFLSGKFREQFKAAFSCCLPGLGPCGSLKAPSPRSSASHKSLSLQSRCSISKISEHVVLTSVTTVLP
OX1R antag-2: human HCRTR1 antagonism; CHO/OX1R cells, Fluo-8 calcium fluorescence, orexin A; inhibition, % at 5 µM; AID 434989; 0.43% of 330,000 active;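 active = inhibition above its plate's threshold, mean inhibition of all tested compounds on the plate plus 3 SD, cut at about 37% in these data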;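 also: 0% = orexin A challenge wells and 100% = SB-334867-A antagonist wells; not every result past the cut was called active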
Numbers without * were called inactive. An excerpt, and most or all hits are left out here.

OX1R antag-1	OX1R antag-2	Structure
10	-31	CCC(C)N(C(=O)COC(=O)c1nc(Cl)ccc1Cl)C1CCS(=O)(=O)C1 (stereo not given)
4	-25	Cc1ccc(C)c(-c2ccc(=O)n(Cc3ccc(F)cc3Cl)n2)c1
14	-15	CN(C)S(=O)(=O)c1cccc(NC(=O)CSc2nc3c(cc2C#N)C(=O)CC(C)(C)C3)c1
9	-5	Cc1ccc(C(=O)Nc2nc3ccc(S(C)(=O)=O)cc3s2)s1
6	-6	O=C(COc1coc(CN2CCN(c3ccccc3F)CC2)cc1=O)NC1CCCC1
17	-21	CN(CCc1ccccn1)C(=O)CCC1CCCN(C(=O)c2ccc3c(c2)OCCO3)C1 (stereo not given)
10	-13	Cc1cc(C)n2ncc(C(=O)NCCc3ccccc3)c2n1
5	-4	CCC(Oc1ccccc1F)C(=O)NCCCn1ccnc1 (stereo not given)
3	-31	COc1ccc(C2=NN(C(=O)c3ccco3)C(c3cc4ccccc4nc3Cl)C2)cc1 (stereo not given)
14	-5	O=C(/C=C/c1ccc(Br)o1)Nc1nnc(C2CC2)s1
2	-13	CCCCOP(=O)(c1ccc(N(C)C)cc1)C(O)c1ccc(OC)c(OC)c1 (stereo not given)
59	9	Cc1nn(CCCC(=O)Nc2cc(Oc3ccc(F)cc3)cc([N+](=O)[O-])c2)c(C)c1[N+](=O)[O-]
7	-13	COc1ccc(C(=O)Nc2ccc(Nc3ccccc3)cc2)cc1OC
14	23	O=c1[nH]c(SCc2n[nH]c(=S)n2-c2ccccc2)nc2sc3c(c12)CCC3
21	-29	Nc1ccc2oc(C3CCCCC3)nc2c1

Next section:
OX1R antag-1	OX1R antag-2	Structure
22	0	CC(=O)C1=C(O)C(=O)N(CCC(=O)O)C1c1cccc(F)c1 (stereo not given)
8	-7	O=C(Cc1ccc(F)cc1)N1CCOCC1
27	-49	COc1ccc(-c2cc(C(F)(F)F)nc(SCC(=O)NCc3cccs3)n2)cc1OC
6	-29	CCOC(=O)C1(Cc2ccc(O)cc2)NC(c2ccco2)C2C(=O)N(c3ccccc3F)C(=O)C21 (stereo not given)
22	-34	CCCN(CCC)CCCNc1ccc2nnc(-c3ccc(F)cc3)n2n1
8	-26	Cc1ccc(C)c(S(=O)(=O)N2CCN(CC(=O)Nc3ccc4c(c3)OCCO4)CC2)c1
9	-17	O=C(COc1cccc2ccccc12)NCc1cccnc1
9	-37	COc1ccc(C(=O)NC(C(=O)NCCc2ccc3c(c2)OCCO3)C(C)C)cc1 (stereo not given)
9	-10	CC12COC3(C(=O)Nc4cccnc4)CC1CCC32C (stereo not given)
9	-14	CCOC(=O)C1(Cc2ccccc2C(F)(F)F)CCN(CC2CC2)CC1
8	-30	CN1CCSc2ccc(C(=O)NCc3cccc(Br)c3)cc21
13	1	CCCCOc1cccc(C(=O)NC(=S)Nc2cccc(NC(=O)c3ccccc3Cl)c2)c1
2	-2	Cc1cccc(N(C(=O)Cn2nnc(-c3ccc(C)o3)n2)C(C(=O)NC2CCCC2)c2ccncc2)c1 (stereo not given)
22	-5	O=C(c1ccc(=O)oc1)N1CCOCC1
15	13	Cc1cc(O)c(C(C)C)cc1NC1=NS(=O)(=O)c2ccccc21

Four compounds from above, arranged by the value under OX1R antag-1, ascending:
OX1R antag-1	OX1R antag-2	Structure
2	-2	Cc1cccc(N(C(=O)Cn2nnc(-c3ccc(C)o3)n2)C(C(=O)NC2CCCC2)c2ccncc2)c1 (stereo not given)
8	-26	Cc1ccc(C)c(S(=O)(=O)N2CCN(CC(=O)Nc3ccc4c(c3)OCCO4)CC2)c1
9	-10	CC12COC3(C(=O)Nc4cccnc4)CC1CCC32C (stereo not given)
22	-34	CCCN(CCC)CCCNc1ccc2nnc(-c3ccc(F)cc3)n2n1

New compounds follow
OX1R antag-1	OX1R antag-2	Structure
27	-14	CC(=O)Nc1ccc2nc(-c3ccccn3)[nH]c2c1
25	-33	Cc1ccc2c(c1)nnn2C1CCN(C(=O)C2CCCCC2)CC1
-4	-18	O=C(CCCN1C(=O)c2ccccc2C1=O)Nc1c(C(=O)C2CC2)oc2ccccc12
18	-7	Cc1cc(C)c(S(=O)(=O)Nc2cccc(C(=O)O)c2)cc1S(=O)(=O)Nc1cccc(C(=O)O)c1
24	-42	Cc1ccc(S(=O)(=O)N(Cc2ccc(Cl)cc2)c2ccccc2C(=O)NCc2cccnc2)cc1
12	-23	COc1ccc(Cc2nc(-c3ccncc3)no2)cc1
8	-22	COc1cc(CNC2CCCCC2)c(Br)cc1OC1CCCC1
27	-16	CCCn1c(SCC(=O)Nc2ccc3c(c2)CCC3)n[nH]c1=O
14	0	Cc1ccnc(NC(=O)CNC(=O)c2ccc3c(c2)OCO3)c1
-1	0	CCNS(=O)(=O)c1ccc(CCC(=O)N2CCOCC2)cc1
15	-18	CCc1ccc(C2=NN(S(C)(=O)=O)C(c3cccs3)C2)cc1 (stereo not given)
5	-26	CCc1ccccc1NC(=O)C1CC(c2ccc(F)cc2)=NO1 (stereo not given)
8	-24	CCn1c(Oc2cccc(Br)c2)nc2c1c(=O)n(C)c(=O)n2C
21	-10	COc1ccc(N2C(=O)c3ccc(C(=O)Nc4ccccc4O)cc3C2=O)cc1
4	-1	Cc1cc(S(=O)(=O)N2CCCOC2CNC(=O)C(=O)NCCCN2CCOCC2)ccc1F (stereo not given)

Entries of single compounds, looked up by structure.
Results for O=C(CCCN1C(=O)c2ccccc2C1=O)Nc1c(C(=O)C2CC2)oc2ccccc12 : OX1R antag-1 = -4; OX1R antag-2 = -18
Results for CCn1c(Oc2cccc(Br)c2)nc2c1c(=O)n(C)c(=O)n2C : OX1R antag-1 = 8; OX1R antag-2 = -24

Additional structures.
OX1R antag-1	OX1R antag-2	Structure
18	-10	Cc1ccc(-c2cn(-c3ccccc3)c(SCC(N)=O)n2)cc1C
29	-15	S=c1[nH]nc(-c2ccc(Cl)cc2)n1Cc1ccccc1
24	-8	O=C(Nc1cc(Cl)ccc1N1CCOCC1)c1cnccn1
8	-14	CC(C)(C)NC(=O)CN(C(=O)C1CSC(=O)C1)c1ccc2c(c1)OCCO2 (stereo not given)
12	-28	COc1ccc(C(=O)CN2C(=O)NC(C)(c3ccccc3)C2=O)cc1OC (stereo not given)
35	-34	O=C(NCC1(c2ccccc2)CCCC1)C1(c2ccccc2)CCCC1
23	-38	C=CC[C@H]1Cc2c(cccc2[N+](=O)[O-])[C@H](CC=C)N1
22	-4	Cc1nnc(SCC(=O)N(C)C2CCCCC2)s1
9	-35	COC(=O)c1ccc(NC2c3ncccc3C(=O)N2Cc2cccs2)cc1 (stereo not given)
2	1	Cn1nnnc1SCC(=O)c1c(N)n(C)c(=O)n(C)c1=O
18	-18	COC(=O)Nc1nnc(Cc2ccc(OC)cc2)s1
17	-2	CCn1c(=O)n(CC)c2cc(S(=O)(=O)N3CCOCC3)ccc21
22	-9	COCCCNc1nc2nonc2nc1N1CCN(C2CCCC2)CC1
14	-22	Cc1cccc(OCC(=O)Nc2ccccc2N2CCCC2)c1C
10	-11	CC(C)CNC(=O)Cn1nc(C(F)(F)F)c2c1CCCC2

The closing 2 entries of the part before come first, to join the parts:
OX1R antag-1	OX1R antag-2	Structure
14	-22	Cc1cccc(OCC(=O)Nc2ccccc2N2CCCC2)c1C
10	-11	CC(C)CNC(=O)Cn1nc(C(F)(F)F)c2c1CCCC2
47	-20	CN(C)C(=O)COC(=O)/C=C/c1cn(-c2ccccc2)nc1-c1cccs1
21	-6	CC(=O)c1cccc(NC(=O)CSc2ccc(-c3ccccn3)nn2)c1
-5	-8	COCc1cc(C)nc(SCC(=O)Oc2ccc(Cl)cc2)c1C#N
35	-1	Cc1c(C(=O)NC(C)c2ccc(-n3ccnc3)cc2)cccc1[N+](=O)[O-] (stereo not given)
10	-13	Cc1c(C(=O)N2CCN(c3ccc(F)cc3)CC2)oc2c1C(=O)CCC2
15	-24	O=C(CN1CCCCC1)Nc1ccccc1NC(=O)CN1CCCCC1
11	-8	O=c1c2c(nc3nc(COc4ccccc4)[nH]n13)CCC2
13	-12	COC(=O)c1ccc(CNC(=O)CSC2=NCCS2)cc1
25	-17	CC(C)N1CCC(N2CCN(Cc3ccc4nonc4c3)CC2CCO)CC1 (stereo not given)
21	-33	COc1ccccc1Oc1ccc(N/C=C/C(=O)c2ccc(C)o2)cc1
24	-17	COc1ccccc1C(=O)Nc1ccc2c(c1)nc1n2CCN(Cc2ccccc2)C1
20	-20	CNC(=O)CSc1nnc(-c2ccco2)n1-c1ccccc1OC
24	8	Cc1cc(C(=O)CSc2nnnn2-c2ccc(O)cc2)c(C)n1Cc1ccc2c(c1)OCO2
12	-12	CC(=O)N1CCN=C1SCc1c(F)cccc1Cl
13	-14	Cc1ccc(S(=O)(=O)N2CCCCC2C(=O)N2CCN(c3ccccc3F)CC2)cc1 (stereo not given)

(listing goes on)
OX1R antag-1	OX1R antag-2	Structure
9	-19	C=CCN1C(=O)C(C)S/C1=N\S(=O)(=O)c1ccc(Cl)cc1 (stereo not given)
6	-35	CCC(C(=O)NC1CCCCC1)n1c(SCc2ccc(F)cc2)nc2ccncc21 (stereo not given)
6	-23	O=C(CS(=O)(=O)Cc1ccccc1)Nc1ccc(S(=O)(=O)N2CCOCC2)cc1
5	-7	O=C(Nc1cccnc1)c1ccc(CSc2ccccc2)cc1
25	0	O=C(Nc1cccc(Cl)c1)Nc1ccccc1C(=O)O
30	-18	CC(Oc1ccc2c3c(c(=O)oc2c1)CCCC3)C(=O)NCc1ccncc1 (stereo not given)
21	-16	CCOc1ccc(NC(=O)Nc2ccc(N(C)C(C)=O)cc2)cc1
28	-14	COc1ccccc1-c1nc2ccccc2c(=O)n1NC(=O)c1cccs1
29	-30	COC(=O)c1ccc(C)c(NC(=O)C2COc3ccccc3O2)c1 (stereo not given)
9	-12	CC1CCCN(C(=O)Cn2nnc(-c3cccnc3)n2)C1 (stereo not given)
3	-35	Cc1ccc(NC(=O)c2oc(=O)c3ccccc3c2-c2ccccc2)c(C)c1
-4	-20	COCCC(=O)N1CCC(n2nccc2NC(=O)c2ccccc2C)CC1
15	-13	COc1cc(OC)c(NC(=O)c2ccc3c(SCC(=O)O)c4c(nc3c2)CCCC4)cc1Cl
32	-19	Oc1ccc(N2CCN(Cc3ccc(OCCCN4CCCCC4)cc3)CC2)cc1
13	-8	COc1ccc(CCN(Cc2cc3ccc(C)cc3n3nnnc23)C(C)=O)cc1OC

A section from further up, for reference:
OX1R antag-1	OX1R antag-2	Structure
29	-30	COC(=O)c1ccc(C)c(NC(=O)C2COc3ccccc3O2)c1 (stereo not given)
9	-12	CC1CCCN(C(=O)Cn2nnc(-c3cccnc3)n2)C1 (stereo not given)
3	-35	Cc1ccc(NC(=O)c2oc(=O)c3ccccc3c2-c2ccccc2)c(C)c1
-4	-20	COCCC(=O)N1CCC(n2nccc2NC(=O)c2ccccc2C)CC1

(cont.)
OX1R antag-1	OX1R antag-2	Structure
19	-16	COc1ccc(C(=O)Nc2sc3c(c2C#N)CCN(C(C)=O)C3)cc1
22	1	CC1(C)CC(=O)c2c(O)c(-c3ccccc3)c(=O)n(-c3ccccc3)c2C1
6	-1	CC(C)N1CCN(S(=O)(=O)c2ccccc2)CC1
6	-12	COc1ccccc1NC(=O)CC1Nc2ccccc2NC1=O (stereo not given)
21	-33	N/C(Cc1ccc([N+](=O)[O-])cc1)=N\OC(=O)c1ccc2ccccc2c1
7	-3	Cc1ccc(N=Cc2c(O)n(-c3nccs3)c(=O)c3ccccc23)c(C)c1
13	-20	Cc1c(C#N)sc2nc(-c3ccccc3)nc(N3CCCC3)c12
28	-9	O=C(OC(C(=O)NC1CCCCC1)c1ccc(C(F)(F)F)cc1)c1ccco1 (stereo not given)
7	-1	Nn1c(SCC(=O)N2CCCCCC2)nnc1-c1ccncc1
3	-31	CCC(C)NC(=O)NC(=O)CSc1nnc(-c2ccccc2F)n1C1CC1 (stereo not given)
0	0	Cc1cc(C)n(C(=O)Cn2nc(C(F)F)cc2C)n1
30	-13	Cc1cccc(NC(=O)C2(C)CC3c4ccccc4C2c2ccccc23)c1 (stereo not given)
10	-13	COc1ccc(N2CCN(C(=O)CCC(=O)N3Cc4ccccc4Oc4ncccc43)CC2)cc1
1	3	COc1ccc(NC(=O)CSc2nncc(=O)n2N)cc1OC
16	-11	O=C(COC(=O)C1CCN(S(=O)(=O)c2ccc3c(c2)OCCO3)CC1)Nc1cc(C(F)(F)F)ccc1Cl

The list goes on.
OX1R antag-1	OX1R antag-2	Structure
4	-12	COc1ccc(S(=O)(=O)NCCSC(C)(C)C)cc1
5	-2	O=C(O)c1ccccc1CSc1ncn[nH]1
-6	-13	CCN(CC)C(=O)CN(c1cc2c(cc1OC)oc1ccccc12)S(=O)(=O)c1ccccc1
21	-32	CCCN(CCC)S(=O)(=O)c1ccc(C(=O)Nc2nc3c(s2)CCc2ccccc2-3)cc1
9	-10	COc1ccc(OCCNC(=O)c2ccccc2OCC(=O)Nc2ccc(NC(C)=O)cc2)cc1
10	-13	CN(C)CCNc1oc(COc2ccc(Cl)cc2Cl)nc1C#N
22	-21	COc1ccc(-n2c(CNC(=O)COc3ccc(Cl)cc3)n[nH]c2=S)cc1
32	-22	COc1ccc(CNC(=O)C2CCC(=O)N(CC3CCCCC3)C2)cc1 (stereo not given)
42	-18	CCN(CCCNC(=O)C1CCN(S(=O)(=O)c2cnc[nH]2)CC1)c1ccccc1
11	-14	CCOC(=O)C[C@H]1c2ccccc2S(=O)(=O)N1c1cccc(OC)c1
12	-18	C#CCSc1[nH]c(=O)cc(C)c1C#N

Source: PubChem BioAssay (The Scripps Research Institute Molecular Screening Center)
